# Screens: PubChem, National Center for Advancing Translational Sciences (NCATS)
# Resorufin fluor: compound fluoresces in the resorufin spectral region. Compound fluorescence, resorufin region 547/598 nm, buffer; stronger effect = higher value. max dye-equivalent concentration, M. hit rate 0.04% among 59,000. AID 588; active = above 10 nM dye equivalent; inconclusive = 1 to 10 nM; inactive = 1 nM or less; a few of its hits are not listed in these tables; also: highest value over a series up to 38 µM
#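 Read-out: intrinsic compound fluorescence at ex 547/em 598 nm after 15 min at RT in pH 8.0 Tris (100 mM). Values expressed as resorufin-equivalent concentration from per-plate standard series.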
# TSHR ag: TSH receptor (human) agonism; AID 926; Potency, µM (series often up to 57.1 µM), for inactives: at the top dose activation, actives largely listed as activators; hit rate 0.48% among 73,000; P16473; HEK293-CNG-TSHR cells (CNG channel as cAMP sensor), membrane potential dye, cAMP; active = well fitted activation curve of enough size with the parental cells flat; inconclusive = any curve in the parental cells; inactive = parental cells flat and receptor cells flat or falling; also: potency is read from the fitted curve at half-maximal effect; % of control where 0% means no effect; weak receptor curves with flat parental cells got no call and are not listed
# Target sequence (P16473 whole entry, looked up): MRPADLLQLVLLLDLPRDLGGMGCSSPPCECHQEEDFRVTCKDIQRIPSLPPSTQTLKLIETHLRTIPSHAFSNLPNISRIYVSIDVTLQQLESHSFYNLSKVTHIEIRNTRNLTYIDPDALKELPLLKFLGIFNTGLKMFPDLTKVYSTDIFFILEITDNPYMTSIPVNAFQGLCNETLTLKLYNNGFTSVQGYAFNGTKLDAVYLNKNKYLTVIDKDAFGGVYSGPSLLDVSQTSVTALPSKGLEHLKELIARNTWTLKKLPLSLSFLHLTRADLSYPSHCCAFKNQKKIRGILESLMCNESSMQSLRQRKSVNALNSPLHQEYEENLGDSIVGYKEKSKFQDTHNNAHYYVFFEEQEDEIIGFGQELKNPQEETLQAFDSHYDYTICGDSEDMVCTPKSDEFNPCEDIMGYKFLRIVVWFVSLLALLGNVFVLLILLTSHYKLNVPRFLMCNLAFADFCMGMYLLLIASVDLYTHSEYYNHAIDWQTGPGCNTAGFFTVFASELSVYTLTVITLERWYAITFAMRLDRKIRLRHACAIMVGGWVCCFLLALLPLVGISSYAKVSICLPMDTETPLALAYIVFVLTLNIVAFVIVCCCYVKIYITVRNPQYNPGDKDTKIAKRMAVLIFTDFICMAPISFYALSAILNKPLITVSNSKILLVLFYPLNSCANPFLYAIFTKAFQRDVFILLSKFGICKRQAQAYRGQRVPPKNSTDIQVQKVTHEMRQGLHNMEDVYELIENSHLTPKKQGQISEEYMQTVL
#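 cAMP rise detected as CNG-channel membrane depolarization by fluorescent dye (emission 590 nm), 30 min after compound, following 60 min dye loading containing 100 uM RO 20-1724 at room temperature. Cells: TSHR/CNG HEK 293, with parental CNG HEK 293 as control.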
# A488 fluor: A488 region autofluorescence. hit rate 0.1% among 59,000. AID 591. max dye equivalency, M. compound autofluorescence, A488 spectral region, dye equivalency; stronger effect = higher value; active = above 10 nM dye equivalent; inconclusive = 1 to 10 nM; inactive = 1 nM or less; about half of its hits are not listed in these tables;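 also: highest value over a series up to 38 µM; compound alone in buffer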
#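 Spectroscopic profiling in the A488 region: compounds in pH 8.0 Tris (100 mM), 15 min RT, CCD imaging with 480 nm excitation and 540 nm emission; responses normalized against A488 dye standards.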
# A647 fluor: compound autofluorescence in A647 spectral region; 59,000 tested, under 10 active; max dye-equivalent concentration, M; Compound fluorescence, A647 channel (570/671 nm), Tris buffer; active means above 1 µM dye equivalent; inconclusive means 0.1 to 1 µM; inactive means 0.1 µM or less;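 also: values scaled relative to a standard on each plate; highest value over a series up to 38 µM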
#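 Compound fluorescence was measured in 100 mM Tris buffer, pH 8.0, after 15 min at room temperature, using 570 nm excitation and 671 nm emission filters. Signal was normalized to a per-plate Alexa 647 standard curve and expressed as dye-equivalent concentration at each compound concentration.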
# AID923: qHTS Assay for Allosteric/Competitive Inhibitors of Caspase-1: Spectroscopic Profiling in AFC Spectral Region | compound fluorescence, AFC spectral region (405/520 nm); almost no hit is shown here | Potency, µM (top dose mostly 57.5 µM), inactives show top-dose fluorescence increase, hits mostly activators | hit rate 1.1% among 75,000 | AID 923, 2007; active = well fitted activation curve with a large enough effect; inconclusive = small, poorly fitted or top-dose-only effect;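 also: potency is read from the fitted curve at half-maximal effect; 0% is about no effect; scaled to a free AFC standard on each plate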
#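 Compound autofluorescence profiled at 405 nm ex/520 nm em during kinetic caspase 1 run (50 nM enzyme, 5 uM Ac-WEHD-AFC, HEPES pH 7.5, 10 mM DTT). Titration up to 57 uM; baseline from regression intercept, normalized to AFC standard curve.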
# * hit, by the source's call; i = inactive; ? = inconclusive; · = no result given; & = joins results of further samples; [ ] = another dose, or the depositor's remark.
SMILES	Resorufin fluor	TSHR ag	A488 fluor	A647 fluor	AID923
O=C(Nc1ccc(N2CCCC2=O)cc1)c1cccc(F)c1	i	4.3%	i	1.09e-08	1.2%
CNC(=O)[C@@]1(Cc2ccccc2)C=C[C@@H](C)N1C(C)=O	·	1.6%	·	·	4.9%
Cc1cc2oc(=O)cc(CN3CCc4ccccc43)c2cc1Cl	i	?	i	3.4e-09	0.0%
COC(=O)c1sc(NC(=O)COc2ccccc2)nc1C	i	?	i	1e-09	-1.3%
CCOc1ccc(-c2cc(C(=O)NCCCN3CCN(CC)CC3)c3ccccc3n2)cc1	i	15.3%	i	1.76e-08	0.8%
COc1ccc(NC(=O)C2CCN(S(=O)(=O)c3ccc(OC)c(OC)c3)CC2)c(OC)c1	·	1.4%[11.4 µM]	·	·	-0.6%
COc1ccc(C)cc1NC(=O)c1ccc(N(C)S(C)(=O)=O)cc1	i	-1.9%	i	1e-09	0.8%
O=C(CCCCC(=O)N1CCN(c2ccccc2)CC1)N1CCN(c2ccccc2)CC1	·	5.8%[11.4 µM]	·	·	-0.4%
Cc1cc(C)nc(SCC(=O)Nc2cc(C)on2)n1	·	3.7%	·	·	-1.1%
CCOC(=O)N1CCC(N(CCOC)C(=O)Nc2ccc(Cl)c(Cl)c2)CC1	i	13.8%	i	2.1e-09	-2.2%
CCn1c(NC(=O)c2cccs2)c(-c2cccs2)c(=O)c2ccccc21	i	·	i	1e-09	-1.1%
Cc1cc2nnc(SC(C)C#N)n2c2ccccc12 (stereo not given)	i	4.6%	i	2.5e-09	-1.6%

# An excerpt of these results, field by field:
molecule: CCOc1ccc(-c2cc(C(=O)NCCCN3CCN(CC)CC3)c3ccccc3n2)cc1
  Resorufin fluor: i
  TSHR ag: 15.3%
  A488 fluor: i
  A647 fluor: 1.76e-08
  AID923: 0.8%
molecule: COc1ccc(NC(=O)C2CCN(S(=O)(=O)c3ccc(OC)c(OC)c3)CC2)c(OC)c1
  Resorufin fluor: ·
  TSHR ag: 1.4%[11.4 µM]
  A488 fluor: ·
  A647 fluor: ·
  AID923: -0.6%

# Continuation:
SMILES	Resorufin fluor	TSHR ag	A488 fluor	A647 fluor	AID923
COc1ccc2nc(N3CCCC3)[nH]c2c1	i	-2.6%	i	1.81e-08	0.5%
CCCCCCCCCCCCCCCCCC(=O)O[C@H](CC(=O)O)C[N+](C)(C)C	i	?	i	2.79e-08	-1.5%
CC1CN(Cc2nc3c(c(=O)[nH]c(=O)n3C)n2CCCc2ccccc2)CC(C)O1 (stereo not given)	i	3.3%	i	1e-09	-2.5%
COc1ccc(N2CCN(c3nc(=S)n(-c4ccccc4)c(C)c3C(C)=O)CC2)cc1	i	-9.2%	i	2.41e-08	8.8%
CCOC(=O)c1cccc(NC(=O)CSc2nnc(COc3ccccc3)n2CC)c1	i	11.4%	i	3.8e-09	-3.0%
Cc1c(C(=O)NCc2ccc3c(c2)OCO3)oc2ccccc12	·	?	·	·	-1.0%
CCCN(CCC)C(=O)Cn1ccc(=N)c2ccccc21	i	8.3%[11.4 µM]	i	1e-09	0.2%
COc1cc(C(=O)Nc2cc(Cl)ccc2C)c(-n2cnnn2)cc1OC	i	0.4%	i	4.4e-09	0.7%
COc1ccc(-c2cnnn2-c2ccc(NC(=O)c3ccco3)cc2)cc1OC	i	?	i	1e-09	0.7%
CC1CCCN(c2nc3c(c(=O)[nH]c(=O)n3C)n2CCSc2ncccn2)C1 (stereo not given)	·	0.1%	·	·	-1.5%
Clc1ccc(CSc2ncnc3c2ncn3[C@@H]2CCCCO2)cc1	i	?	i	3.56e-08	-2.7%[11.5 µM]
COC(=O)c1ccc(C(NC(=O)OCc2ccccc2)/C(=C/[C@@H](C)C(=O)NCc2cc(C)on2)c2cccnc2)cc1 (stereo not given in full)	·	10.9%	·	·	0.6%
CCOCC(=O)Nc1nnc(COc2ccc(Cl)cc2)s1	i	12.5%	i	2.28e-08	0.7%
COc1ccccc1-c1nc(N(C)Cc2ccco2)c2ccccc2n1	i	?	i	1e-09	0.5%
CCOc1ccc(-c2nc(C#N)c(N3CCCCCC3)o2)cc1	·	20.4%	·	·	-0.3%
Cc1[nH]c2ccccc2c1-c1cc(-c2cc(-c3c(C)[nH]c4ccccc34)nc(N)n2)nc(N)n1	i	0.1%[11.4 µM]	i	1.5e-09	-1.1%[11.5 µM]
CCCC(=O)N1CCc2[nH]c3ccccc3c2C1	i	·	i	6.6e-09	·
CN1CCN(c2ncncc2-c2cccnc2)CC1	i	?	i	2.04e-08	0.6%
Cc1ccc2c(c1)c(C)cc(=O)n2CCC(=O)O	i	7.5%	i	7e-09	1.7%
Nc1nc(NC(=O)CCCC(=O)O)nn1-c1ccccc1	i	?	i	1.61e-08	0.0%
COc1cc(C(=O)O)c([N+](=O)[O-])c(OC)c1OC	i	8.2%[11.4 µM]	i	1e-09	-3.0%[11.5 µM]
COc1cccc(N2C(=O)c3ccncc3C2=O)c1	i	2.8%	i	2.17e-08	0.5%
COc1ccc(CCNC(=O)Cn2cnc3c(nnn3Cc3ccc(C)cc3)c2=O)cc1OC	i	·	i	4.35e-08	0.6%
Cc1ccccc1[C@@H](OCCN(C)C)c1ccccc1	i	-7.0%[25.6 µM]	i	3.56e-08&2.5e-09	-1.8%[25.7 µM]
CCCC[S@@](=N)(=O)CC[C@@H](N)C(=O)O	i	?	i	1e-09&2.3e-09	-4.5%&-2.2%
CCOC(=O)c1ccc(N=c2sc(C(=O)OC)cc(=O)n2CCCN2CCOCC2)cc1	·	?	·	·	-2.5%
CCCc1[nH]nc2c1C(c1ccc(OCCN3CCOCC3)c(OC)c1)C(C#N)=C(N)O2 (stereo not given)	i	-1.9%	i	7.1e-09	0.3%
COc1ccc(CNS(=O)(=O)c2ccc(OC)cc2)cc1	i	30.3%	i	3.4e-09	-1.7%
O=C(OCC(=O)N(C1CCCCC1)C1CCCCC1)c1ccncc1	i	?	i	2.31e-08	0.2%
Cc1c(CN2CCCCC2)c(O)n(CCCO)c(=O)c1C#N	i	?	i	3.9e-09	5.8%
CN(C)CCC(=O)c1ccc2c(c1)OCO2	i	-8.4%	i	4.04e-08	-0.1%
Cn1cnc2c1c(=O)n(Cc1c(Cl)cccc1Cl)c(=O)n2C	i	2.7%	i	4.8e-09	0.9%
Cc1ccc(NC(=O)CSc2nnc(-c3ccco3)c(-c3ccco3)n2)cc1	i	·	i	1.84e-08	·
O=C(CN1CCN(Cc2ccccc2F)C1=O)NCCN1CCOCC1	·	-5.7%	·	·	0.7%
NC(=O)CN1CCCN(S(=O)(=O)c2ccc(Br)cc2)CC1	i	4.5%	i	3.07e-08	-0.1%
O=C(O)C1CCCN(S(=O)(=O)c2cccc3cccnc23)C1 (stereo not given)	·	4.7%	·	·	0.6%
CCCNC(=O)c1cccc(Cn2nc(C)c(Br)c2C)c1	i	12.5%	i	2.96e-08	-0.7%
CCSc1nnc(NC(=O)c2cc(C)on2)s1	i	5.0%	i	6.2e-09	-1.9%
COC(=O)c1cc(NC(=O)C23CCC(C)(C(=O)O2)C3(C)C)cc(C(=O)OC)c1 (stereo not given)	i	15.8%	i	3.2e-08	-1.0%
CS(=O)(=O)N(CC(=O)NCc1ccc2c(c1)OCO2)c1ccc(Cl)cc1	i	10.4%	i	1e-09	-0.5%
O=C(CCSc1nc(-c2ccco2)cc(C(F)(F)F)n1)NCc1ccccn1	i	5.0%	i	7.5e-09	-0.3%
CCOC(=O)Cc1csc(NC(=O)COc2ccccc2)n1	i	8.4%	i	1.28e-08	1.1%
Cc1cc(S(=O)(=O)NC2CCCCC2)c(C)s1	i	18.7%	i	1.99e-08	-1.8%
O=c1ccn(Cc2ccccc2Cl)cc1	i	-6.4%	i	1.6e-09	0.6%
COc1ccc(OC)c(C(c2nnnn2CC2CCCO2)N2CCN(C)CC2)c1 (stereo not given)	i	-4.7%	i	1.22e-08	0.0%
COc1ccc(Cl)cc1NC(=O)N1CCN(C2CCCCC2)CC1	i	-5.5%	i	1.81e-08	0.9%
Cc1cc(C(=O)COC(=O)CN(C)S(=O)(=O)c2ccc(Cl)cc2)c(C)n1Cc1cccs1	i	14.7%	i	7.2e-09	0.9%
C[C@@]12CCC3c4ccc(OC5C=CC(c6ccccc6)OC5CO)cc4CCC3C1CCC2=O (stereo not given in full)	·	17.5%[11.4 µM]	·	·	-1.7%[11.5 µM]
O=C(c1ccc(N2CCCC2=O)cc1)N1CCOCC1	i	-1.2%	i	3.3e-09	1.6%
Cc1nc2ccccc2c(=O)n1NCc1cccs1	i	-5.1%	i	1.63e-08	-5.0%
COc1ccc(Br)cc1C1CC(=O)N2CN(C)CSC2=C1C#N (stereo not given)	·	0.9%	·	·	-1.3%
CC(=O)C1=C(O)C(=O)N(c2cccc(C(=O)O)c2)C1c1ccc(F)cc1 (stereo not given)	i	·	i	1e-09	·
CCc1nc2oc(C(=O)c3ccccc3)c(N)c2c2c1COC(C)(C)C2	·	?	·	·	2.2%
COc1cccc(Nc2ncc3nc(-c4cccs4)c(=O)n(CCC#N)c3n2)c1	i	-4.6%	i	9.1e-09	19.9%
COc1ccccc1N1CCN(Cc2ccc(OC)c(OC)c2OC)CC1	·	1.3%	·	·	2.6%
CCOC(=O)Nc1nc(C)c(C(=O)N(C)C)s1	i	-0.6%	i	6.6e-09	1.3%
CCn1c(=O)c2c(nc3n2CCCN3CCc2ccccc2)n(C)c1=O	i	-8.9%	i	1.66e-08	-4.4%
COc1ccc(C(=O)NCC(=O)Nc2ccccc2)cc1OC	i	-5.9%	i	1e-09	0.1%
COc1ccc2c(c1OC)C(=O)NC(C)=C(C(=O)OC(C)(C)C)C2O (stereo not given)	i	-8.0%	i	2.69e-08	-2.0%
Cc1sc2nc(CN3CCOCC3)nc(N3CCC(C(N)=O)CC3)c2c1C	i	1.0%	i	2.1e-09	-3.4%

# Carrying on:
SMILES	Resorufin fluor	TSHR ag	A488 fluor	A647 fluor	AID923
Cc1occc1-c1nnc(SCC(=O)N2CC(=O)Nc3ccccc32)n1CC(C)C	i	4.9%	i	1.9e-09	0.3%
COc1ccccc1NC(=O)C1C2C=CC3(CN(Cc4cccnc4)C(=O)C13)O2 (stereo not given)	·	3.8%	·	·	5.3%
COC(=O)[C@@]1(Cc2ccccc2)[C@H]2c3cc(C(=O)N(C)C)n(Cc4nc5ccccc5[nH]4)c3C[C@H]2CN1C(=O)c1ccccc1	·	11.8%	·	·	2.5%
COc1cc(NC(=O)CN2C(=O)c3ccccc3S2(=O)=O)c(OC)cc1Cl	i	4.9%	i	3.11e-08	0.9%
O=C1c2ccccc2S(=O)(=O)N1CC(O)Cn1ccc2ccccc21 (stereo not given)	i	-4.7%	i	1e-09	0.5%
COc1cccc(OC)c1C(=O)Nc1ccccc1N1CCCC1	i	9.6%	i	3.9e-09	-2.2%
N#Cc1nc(-c2ccc(OCc3ccc(Cl)cc3)cc2)oc1N1CCC(C(N)=O)CC1	i	3.5%	i	1.22e-08	2.2%
Cc1ccc2[nH]c(=O)c(-c3noc(-c4ccncc4)n3)cc2c1	i	-1.4%	i	1.08e-08	2.5%
C[N+](C)(C)CC[N+]1(C)Cc2c(Cl)c(Cl)c(Cl)c(Cl)c2C1	·	2.3%	·	·	-0.1%
CCN1C(=O)c2c(C)nc3ccccc3c2C1=O	i	-3.2%	i	1e-09	3.5%
CCOC(=O)C(C)On1c(SC(C)C(=O)OCC)nc2ccccc2c1=O (stereo not given)	i	?	i	4.6e-09	-1.2%
Cc1cccc(C)c1NC(=O)Cn1c(=O)n(CCCC(=O)NCc2ccco2)c(=O)c2sccc21	i	?	i	1e-09	-0.7%

# Only part of the results is shown; the hit share may differ from the screen's.
